PrP UTR inh: inhibition of PrP 5' UTR reporter expression. cell-based PrP 5' UTR mRNA reporter, plate reader. inhibition, % (test concentration not listed). 0.35% of 340,000 active. AID 488862;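 active = every replicate at 50% or more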;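 also: 0 = median of the neutral control wells; tested in H4 reporter cells; numbers are from one replicate; inactives centre near -14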
ugtP null kill: kills S. aureus RN4220 lacking UgtP | S. aureus RN4220 ugtP deletion, OD600 growth, 16 h; some inactives read as strong as hits | 0.54% of 330,000 active | growth inhibition, % (test concentration not listed) | AID 1259309;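 active = z-score under -3 and OD600 up to 0.15 on both plates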;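 also: plate controls were untreated wells for no effect and antibiotic for full effect; wells of about 80 µL received 100 nL stock; the first replicate is given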
Autofluor counter: flagged as autofluorescent in microsphere protease counterscreen; compound autofluorescence counterscreen, microsphere flow cytometry; active compounds read high; fluorescence intensity (test concentration not listed); 3.1% of 360,000 active; AID 624483;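 active = at least 3 SD above the mean of all compounds, about 16000 in these data; inconclusive = too few beads counted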;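 also: 100 nL of 1 mM stock went into each well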
BJeLR viability: BJeLR cell viability loss. AID 1554. 0.17% of 300,000 active. BJeLR (HRASV12) viability, CellTiter-Glo ATP luminescence, 48 h; reference of the scale not given here. inhibition, % (test concentration not listed);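 active = replicate mean above 50%; inconclusive = above 50% but judged a plate artefact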;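 also: 50 nL library stock added to about 25 µL; numbers are from one replicate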
Mtb hypoxia inh: reduces hypoxia-regulated biosensor signal in M. tuberculosis; M. tuberculosis hypoxia-regulated fluorescent reporter, fluorescence; fluorescence inhibition, % (no concentration beside the values); 0.1% of 300,000 active;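 active = 35 to 45% if threefold the growth effect, above 45% if 1.5-fold the growth effect; inactive = the rest, general growth blockers included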;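 also: wells of about 50 µL received 100 nL stock; 0% = vehicle wells and 100% = reference inhibitor wells; whole bacteria with a GFP reporter of the hypoxia response; strong numbers were not always called active; many hits fall short of the cut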
RN4220 kill: S. aureus RN4220 growth inhibition | OD600, 16 h | inhibition, % (no concentration beside the values) | 0.33% of 330,000 active;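 active = z-score of -3 or lower and OD600 up to 0.18 on both plates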;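 also: plate controls were untreated cells for no effect and reference antibiotic for full effect; stock transfer was 100 nL into about 80 µL; one replicate is shown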
Mtb hypoxia inh growth: second read-out of Mtb hypoxia inh, no call of its own (marks repeat the call); growth inhibition, %; measured here: M. tuberculosis growth (absorbance);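 0% = vehicle and 100% = reference antibiotic; read after six days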
* hit, by the source's call; ? = inconclusive; / = not tested or not shown; & = joins results of further samples.

SMILES	PrP UTR inh	ugtP null kill	Autofluor counter	BJeLR viability	Mtb hypoxia inh	Mtb hypoxia inh growth	RN4220 kill
CCOc1cccc(=O)c2c(C)n(C)c(C)c12	-12	-11	10136	-4	-7	-3	-5.0
CCOc1cc(/C=N/OC(C)=O)ccc1OCc1ccccc1	23	/	4241	8	/	/	/
Cc1ccc(-n2c(-c3ccccc3)n[nH]c2=S)cc1	-22	3	4468	4	/	/	2.3
CC(NC(=O)CSc1nnc(CC(=O)Nc2ccc(Cl)c(Cl)c2)n1C)c1ccccc1 (stereo not drawn)	-16	-10	/	3	-7	5	-7.1
CCC(=O)Nc1ccc2nc(C)n(Cc3ccccc3Cl)c(=O)c2c1	-9	-3	5156	1	10	7	0.2
C=CCn1cnc2c(c1=O)c1nc3ccccc3nc1n2N=Cc1ccccn1	/	-12	/	/	3	-1	18
N#Cc1ccccc1S(=O)(=O)N1CCN(C(=O)c2cc(=O)[nH]c3ccccc23)CC1	-1	2	/	/	9	5	1.5
CN1C(=O)/C(=C\c2ccncc2)SC1=Nc1ccccc1	8	21	2314	-4	-3	-6	5.7
O=C(OCC(=O)N1CCc2ccccc21)c1n[nH]c(=O)c2ccccc12	-17	3	3035	/	11	0	4.9
Cn1c(=O)cc(OCC(=O)N2CCN(c3ccccc3F)CC2)c2ccccc21	-2	-5	2384	-3	3	12	3.8

Next part; it opens with the 2 that closed the last part.
SMILES	PrP UTR inh	ugtP null kill	Autofluor counter	BJeLR viability	Mtb hypoxia inh	Mtb hypoxia inh growth	RN4220 kill
O=C(OCC(=O)N1CCc2ccccc21)c1n[nH]c(=O)c2ccccc12	-17	3	3035	/	11	0	4.9
Cn1c(=O)cc(OCC(=O)N2CCN(c3ccccc3F)CC2)c2ccccc21	-2	-5	2384	-3	3	12	3.8
Cc1ccc(C(=O)NC(=S)Nc2ccc(NC(=O)c3cccs3)cc2)cc1[N+](=O)[O-]	-25	-4	2508	13	-2	9	8.1
COCCNc1nnc(SC(C)C(=O)Nc2c(C)n(C)n(-c3ccccc3)c2=O)s1 (stereo not drawn)	-23	9	5536	-1	11	-9	1.6
Cc1ccccc1NC(=O)CN1C(=O)COc2ccc(S(=O)(=O)N3CCCC3)cc21	-1	5	5818	9	6	5	5.3
Cc1ccc(NC(=O)CSCCc2ccccn2)nc1	-20	1	4954	0	-2	-6	1.9
CCON=C1C(=O)N(c2ccccc2)c2ccccc21	/	13	/	/	7	1	-0.1
O=C(COC(=O)c1cc[n+]([O-])cc1)Nc1ccccc1Cl	-17	2	3748	6	6	5	2.7
Cc1ccc(-n2c(SCC(=O)O)nc3c(sc(=S)n3-c3ccc(C)c(C)c3)c2=O)cc1	-5	7	3601	0	0	-1	5.6
CC(=O)c1cccc(Nc2cc(C)nc3ccccc23)c1	22	0	4439	-1	10	-4	2.8
COC(=O)c1ccc(NC(=O)CCc2c(C)nc3ncnn3c2C)cc1	-5	-3	22498*	-1	-4	-8	-5.4
Cc1nnc(NC(=O)CSc2nnc(Cc3cccn3C)n2-c2cccc(C(F)(F)F)c2)s1	2	-3	4290	-16	0	4	6.7
Cc1cnn(CCC(=O)NNC(=S)Nc2cccc(Cl)c2)c1	14	-2	21961*	0	-2	9	0.2
C#CCOCCOCCOCCNc1nc(N2CCN(C(=O)C(Cc3ccc(O)cc3)n3cc(CCO)nn3)CC2)nc(N2CCN(C(=O)C(C(C)O)n3cc(CCCCN)nn3)CC2)n1 (stereo not drawn)	/	6	/	/	15	20	3.6
Cc1ccc(S(=O)(=O)NCCC(=O)N(C)Cc2cccs2)cc1	-15	-4	5981	/	3	10	-2.4
CCc1cc(C(c2cccc(OC)c2)N2CCOCC2)c(NC(=O)c2ccccc2)s1 (stereo not drawn)	-23	-8	3296	18	14	10	-16
O=C(Nc1ccccc1)Nc1cnccn1	-19	11	4530	9	0	-5	2.5
N#CC1=C2SCN(c3ccccc3)CN2C(=O)CC1c1ccccc1Cl (stereo not drawn)	-6	0	5171	-9	3	5	-10
COc1ccc(Cl)cc1NC(=O)CNCC(c1ccccc1)N(C)C (stereo not drawn)	-19	11	3511	6	1	-1	4.4
Cn1cccc1C(=O)OCC(=O)NCCCc1ccccc1	-13	5	3203	/	16	12	5.2
CC(C)OC(=O)c1cc2ccccc2[nH]1	-43	-17	21156*	5	0	10	15
Cc1ccc(S(=O)(=O)Nc2cccc(C(=O)NCC(c3ccc(F)cc3)N3CCOCC3)c2)cc1 (stereo not drawn)	-21	4	6930	/	4	3	-1.4
Cc1ccc(NS(=O)(=O)c2ccc3c(c2)oc(=O)n3C)cc1C	-20	-1	3819	0	13	2	-1.5
O=C(CSc1ccc2nnc(-c3cccnc3)n2n1)NCc1ccc2c(c1)OCO2	-20	3	4945	7	7	3	2.7
COc1c(-c2ccc([N+](=O)[O-])cc2[N+](=O)[O-])c(=O)n(C)c(=O)n1C	4	-2	3701	2	-7	0	1.2
O=[N+]([O-])c1cc(S(=O)(=O)C(F)(F)F)ccc1Sc1nc2ccccc2s1	-18	50	2643	0	/	/	27
O=C(O)/C=C/C(=O)O	-13	1	5314	/	/	/	3.8
CCCNC(=O)c1ccc2c(=O)c(O)c(-c3ccsc3)[nH]c2c1	-14	/	3626	-3	/	/	/
N#CCCN1CCn2c1nc1ccccc12	-35	3	2732	3	/	/	0.5
COc1cc(NS(=O)(=O)c2ccc(NC(C)=O)cc2)nc(OC)n1	-24	4	10416	-2	0	6	4.0
C=C(C)CC1Nc2ccccc2NC1CC(=C)C (stereo not drawn)	-13	12	4050	-22	/	/	-0.5
Cc1cccc(Nc2ccc(C(=O)N3CCOCC3)cn2)c1	-33	11	4195	-3	6	2	5.4
O=C(N/N=C/c1ccc(O)cc1O)NC12CC3CC(CC(C3)C1)C2	-26	/	3011	11	/	/	/
O=[N+]([O-])c1ccc2nc(NS(=O)(=O)c3ccccc3[N+](=O)[O-])sc2c1	-24	10	3053	-4	-1	-4	11
O=C(c1cccc2ccccc12)N1CCN(c2ccc([N+](=O)[O-])c(N3CCOCC3)c2)CC1	0	0	2500	8	-1	-4	-6.4
O=C1CC(NC(=O)C(F)(F)F)c2cc3c(cc21)OCO3 (stereo not drawn)	-19	14	4495	4	6	7	0.3
COc1cccc(N2[C@@H](CC(=O)O)c3ccc(/C=C/C(=O)O)cc3S2(=O)=O)c1	-15	/	3667	12	/	/	/
CC(=O)Nc1ccc(/C=C/c2ccc3c([N+](=O)[O-])cccc3n2)cc1	-60	6	3940	-2	11	13	4.6
CN(C)S(=O)(=O)c1ccc(NC(=O)CSc2nnnn2C)cc1	-20	-2	5719	2	-3	1	3.4
CCOC(=O)C1CCN(C(=O)C23CC4CC(CC(C4)C2)C3)CC1	-10	10	3097	-3	/	/	9.0
COc1cccc(CN2CCNC(=O)C2CC(=O)N(C)CCc2ccccn2)c1OC (stereo not drawn)	/	6	/	-1	12	6	3.5
Cc1ccccc1Cn1cc(NC(=O)CCCn2nc([N+](=O)[O-])cc2C)cn1	-6	5	4288	-6	2	-1	3.7

5 structures out of the list, arranged by count of non-hydrogen atoms, low to high.
SMILES	PrP UTR inh	ugtP null kill	Autofluor counter	BJeLR viability	Mtb hypoxia inh	Mtb hypoxia inh growth	RN4220 kill
CN(C)S(=O)(=O)c1ccc(NC(=O)CSc2nnnn2C)cc1	-20	-2	5719	2	-3	1	3.4
O=C(N/N=C/c1ccc(O)cc1O)NC12CC3CC(CC(C3)C1)C2	-26	/	3011	11	/	/	/
COc1cccc(N2[C@@H](CC(=O)O)c3ccc(/C=C/C(=O)O)cc3S2(=O)=O)c1	-15	/	3667	12	/	/	/
COc1cccc(CN2CCNC(=O)C2CC(=O)N(C)CCc2ccccn2)c1OC (stereo not drawn)	/	6	/	-1	12	6	3.5
O=C(c1cccc2ccccc12)N1CCN(c2ccc([N+](=O)[O-])c(N3CCOCC3)c2)CC1	0	0	2500	8	-1	-4	-6.4

Following part:
SMILES	PrP UTR inh	ugtP null kill	Autofluor counter	BJeLR viability	Mtb hypoxia inh	Mtb hypoxia inh growth	RN4220 kill
COc1ccc(C=c2sc3nc(-c4ccccc4)c(-c4ccccc4)n3c2=O)cc1	/	-13	/	/	-2	7	2.6
C/C(CC(=O)N(C(C)C)C(C)C)=N\NC(=O)COc1ccc(Br)cc1Br	-11	/	2656	-1	/	/	/
COC(=O)CCN(C(=O)c1cc([N+](=O)[O-])cc([N+](=O)[O-])c1)c1ccccn1	-16	12	4552	-2	-4	14	2.0
O=C(CCCOc1ccc(Cl)cc1)N1CCCCC1	-23	10	9660	-4	6	6	5.2
O=C(O)c1ccccc1/C=N/N1CCN(C2c3ccccc3-c3ccccc32)CC1	-26	/	3455	4	/	/	/
CC1(C)Cc2nc(N)c(=O)sc2C1	-15	0	10497	-3	7	3	2.1
CCC1CCCCN1C(=O)COc1ccccc1NC(C)=O (stereo not drawn)	-6	-6	4327	-7	0	16	0.6
COc1ccccc1NS(=O)(=O)c1ccc(NC(=O)c2[nH]nc(OC)c2[N+](=O)[O-])cc1	-1	-8	?	/	-15	4	5.8
Cc1ccc(C2(C)NC(=O)N(CC(=O)N3CC(=O)Nc4ccccc43)C2=O)cc1 (stereo not drawn)	-18	2	3474	/	13	11	6.1
C=CCN1CC(=O)N2C(C)c3[nH]c4ccccc4c3C[C@H]2C1=O (stereo partly drawn)	-3	6	4139	-19	24	17	5.0
CCOC(=O)C1CCN(C(=O)COc2cc(C)c(Br)cc2C)CC1	-7	-5	3089	5	6	10	3.0
CCOc1ccc(NC(=O)c2sc3nc(N4CCOCC4)c4c(c3c2N)CC(C)(C)OC4)cc1	-10	-2	4230	-7	3	-5	-0.1
CC(OC(=O)c1ccccc1O)C(=O)Nc1ccc(Cl)cn1 (stereo not drawn)	-28	2	3992	0	5	0	-1.0
CCN(CC)c1ccc(CN(C(=O)c2ccco2)C2CCS(=O)(=O)C2)cc1 (stereo not drawn)	-16	4	8414	-3	5	4	3.7
Nc1nc2ccccc2n1N=Cc1cccnc1	/	3	/	/	0	8	5.2
CC(=O)c1ccc(S(=O)(=O)N2CCN(C(=O)CSc3ccc(C)c(C)c3)CC2)cc1	-18	-3	3555	6	11	-3	1.2
COc1cc2c(cc1OC)C(C(=O)N1CCCCC1)C(c1ccccc1F)N(C)C2=O (stereo not drawn)	-18	1	7692	-12	5	5	1.2
CC1CCCC(NC(=O)c2ccc3snnc3c2)C1C (stereo not drawn)	-13	4	6054	10	/	/	1.2
CCC(C)NC(=O)c1ccccc1NC(=O)C(C)N(c1ccccc1)S(C)(=O)=O (stereo not drawn)	1	11	8268	-3	10	-2	1.9
CC(C)Nc1nc(NC(C)C)nc(Oc2ccc(OCc3ccccc3)nn2)n1	-35	-11	2658	0	/	/	-0.5
O=C(CN1CCN(Cc2ccccc2Cl)C1=O)NCc1ccco1	-8	0	8676	6	5	7	2.2
CCCCN(CCCC)c1ncnc2nc[nH]c12	10	0	4713	9	4	1	2.7
CC1CCC(C(C)C)C(OC(=O)Cn2c(-c3ccc(Br)cc3)[n+](C)c3ccccc32)C1 (stereo not drawn)	-21&-18	100*	4246&5026	21&12	/	/	100*
CC1(C)Cc2nc(Cl)c(C#N)cc2CO1	-32	-2	3589	-1	11	3	0.7
O=C(CCNc1n[nH]c(=O)[nH]c1=O)N1CCCCC1	-18	5	?	0	3	0	-0.5
Cc1ccc(Cn2nc(C)c(NC(=O)c3noc4c3CCCCC4)c2C)cc1	-18	8	9947	-1	5	5	5.3
O=C(CCS(=O)(=O)c1ccccc1)Nc1ccc2c(c1)OCO2	-46	4	3260	1	0	-2	5.6
CC(C)C(C(=O)NC(C)(C)C)N1C(=O)c2ccccc2C1=O (stereo not drawn)	-17	-3	3913	5	16	12	15
COc1ccccc1C(=O)OCc1c(F)cccc1Cl	-14	8	3009	-10	0	9	-25
C=C(c1ccccc1)c1ccc(N(C)C)cc1	-27	10	4239	-9	-8	-10	-3.3
CCCc1nc2oc3c(=O)[nH]cnc3c2c2c1CCCC2	-6	6	2650	-15	10	0	1.3
O=C(Nc1ccc2c(c1)CCC2)C1CCCN(c2ncccn2)C1 (stereo not drawn)	-81	-2	11434	-3	-2	2	4.9
O=C(O)C1C2CCC(O2)C1C(=O)Nc1ccc(OC(F)F)cc1 (stereo not drawn)	-29	/	4666	-14	/	/	/
CC(NC(=O)c1cc(-c2cccs2)on1)c1ccccc1 (stereo not drawn)	-6	2	16362*	4	11	7	1.6
COc1ccc(NC(=O)c2cn(CCC#N)nc2-c2cccc(Br)c2)cc1	-16	7	3683	1	3	-3	0.0

From PubChem BioAssay
